# Screening results from PubChem BioAssay.
# LANA-H2B inh = blocks KSHV LANA binding to histone H2A/H2B | Q9QR71 | hit rate 0.6% among 320,000 | cell-free LANA-H2A/H2B peptide, fluorescence polarization | inhibition, % (test concentration not listed); in the data active = inhibition mostly above about 10%, no sharp cut-off; inactive = mostly below about 6.7%;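 note: stock transfer was 7.5 nL into about 10 µL; 0% = median of vehicle wells and 100% = median of positive control wells; one replicate is shown; the record names a cut of 25% in any replicate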
# Calb FLC = C. albicans growth modulation with fluconazole; C. albicans CaCi-2 (fluconazole-resistant clinical isolate) + fluconazole, Alamar Blue growth, 48 h; growth inhibition, % (no concentration beside the values); hit rate 0.57% among 300,000;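 active = most replicates above 75%; inconclusive = exactly half above 75%; inactive = most below 75%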;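 note: all wells also contain fluconazole at 8 µg/ml as a sub-toxic cotreatment; 0% = median of DMSO wells and 100% = median of geldanamycin control wells; wells of about 8 µL received 7.5 nL stock; the first replicate is given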
# Beta apoptosis = beta cell apoptosis inhibition. hit rate 0.8% among 300,000. AID 435005. INS-1E cytokine-induced death, ATP luminescence, 48 h; percent of positive-control rescue, neutral wells zero. protection from apoptosis, % (test concentration not listed);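 active = all replicates at 75% or more, or half of them and the mean; inconclusive = half reach 75% but not the mean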;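 note: 0% = cytokine-treated negative control wells and 100% = positive control rescue; higher means more ATP so stronger rescue from cytokine killing; wells of about 40 µL received 100 nL stock; the first replicate is given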
# Ecoli rRNA inh = inhibitors of bacterial rRNA selective over humanized ribosomes | E. coli WT GFP vs humanized-ribosome RFP mutants, fluorescence, 24 h; stronger effect = lower value; DMSO median 0, no signal -100 | GFP signal change (wild-type ribosome), % (concentration not given with the values) | hit rate 1.6% among 350,000 | AID 720706;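 active = significant combined selectivity score with lowered wild-type GFP, culture density cut under 30%, mutant RFP and density less affected; inactive = any of these conditions unmet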; note: one replicate is shown; some compounds called inactive have numbers as strong as hits
# ALR inh = inhibitors of human sulfhydryl oxidase ALR; P55789; purified ALR, DTT oxidation, H2O2 HRP-luminol luminescence; inhibition, % (test concentration not listed); hit rate 3.8% among 290,000; AID 485317;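 active = mean and each replicate at 75% or more; inconclusive = only one of the two met; inactive = neither met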;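 note: stock transfer was 7.5 nL into about 7.5 µL; 0% = neutral wells and 100% = wells with inactivated enzyme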
# Target sequence (P55789 whole entry, looked up): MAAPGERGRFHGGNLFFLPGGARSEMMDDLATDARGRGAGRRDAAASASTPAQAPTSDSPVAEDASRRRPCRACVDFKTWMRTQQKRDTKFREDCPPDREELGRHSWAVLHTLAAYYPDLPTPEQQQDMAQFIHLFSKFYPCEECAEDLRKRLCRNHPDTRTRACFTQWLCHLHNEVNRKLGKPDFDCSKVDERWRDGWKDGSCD
# Beta2AR agonist = human beta-2 adrenergic receptor agonism by FAP | P07550 | Am2.2-beta2AR cells, FAP receptor internalization, flow cytometry; reference of the scale not given here | response, % (concentration not given with the values) | hit rate 0.43% among 340,000 | AID 504454;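 active = response above a set limit, near 3 SD of response in nonfluorescent compounds, cut at about 42% in these data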;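 note: stock transfer was 100 nL into about 11 µL; a reference agonist was the positive control; negative values mostly stem from fluorescent compounds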
# Target sequence (P07550 whole entry, looked up): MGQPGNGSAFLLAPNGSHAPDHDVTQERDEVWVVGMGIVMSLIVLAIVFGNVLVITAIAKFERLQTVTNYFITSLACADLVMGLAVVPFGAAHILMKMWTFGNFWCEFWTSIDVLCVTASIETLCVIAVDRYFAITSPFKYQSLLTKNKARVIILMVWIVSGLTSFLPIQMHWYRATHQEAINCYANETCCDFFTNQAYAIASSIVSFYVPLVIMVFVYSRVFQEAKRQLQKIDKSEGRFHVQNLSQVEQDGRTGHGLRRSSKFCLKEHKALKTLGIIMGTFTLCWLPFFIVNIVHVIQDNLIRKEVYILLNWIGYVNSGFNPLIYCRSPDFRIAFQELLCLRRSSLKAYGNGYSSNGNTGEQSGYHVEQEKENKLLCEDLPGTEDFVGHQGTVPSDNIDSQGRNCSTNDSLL
# Bfl-1 A1 inh = inhibitors of the anti-apoptotic protein A1, read as caspase activation. MEF A1-2A-BIM cells, Caspase-Glo 3/7 luminescence, 3 h; percent of clofoctol response, vehicle zero. caspase activation, % (concentration not given with the values). hit rate 0.066% among 330,000;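 active = over half of replicate activation scores above 10%, or exactly half above 10 with the replicate mean above 10; inconclusive = replicate mean below 10 yet half the replicates above 10; inactive = over half of replicates below 10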;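 note: wells of about 30 µL received 50 nL stock; many hits fall short of the cut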
# T cruzi inh = T. cruzi replication inhibition; T. cruzi beta-gal in NIH3T3, luminescence, 90 h; inhibition, % (test concentration not listed); hit rate 1.4% among 300,000; AID 1885;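 active = mean inhibition across valid replicates above about 55%, limit read from the data; inconclusive = mean below that limit but half or more replicates reach it; inactive = mean below it, under half of replicates reach it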;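 note: signal also drops with host cell toxicity which is not excluded here; 0% = plate median of DMSO wells and 100% = zero luminescence signal; higher percent means less beta-gal luminescence so fewer parasites; stock transfer was 50 nL into about 50 µL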
# Ecoli rRNA inh OD600 = further read-out of Ecoli rRNA inh, marked with its call; OD600 change, %; measured here: OD600 growth;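 optical density of the mix in the first replicate; 0 = DMSO median and -100 = no signal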
# Ecoli rRNA inh RFP = second read-out of Ecoli rRNA inh, no call of its own (marks repeat the call); RFP signal change, %; measured here: RFP humanized mutant strains;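 first replicate; 0 = DMSO median and -100 = no signal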
# Starred values were filed as active, the others as inactive; ? = inconclusive; · = not tested or not shown; & = joins results of further samples. This is a subset (hit frequency here may not be typical).
SMILES,LANA-H2B inh,Calb FLC,Beta apoptosis,Ecoli rRNA inh,Ecoli rRNA inh OD600,Ecoli rRNA inh RFP,ALR inh,Beta2AR agonist,Bfl-1 A1 inh,T cruzi inh
CC(C)N1C(=O)N(c2ccc(Cl)cc2)C(C)(O)CC1(C)C (centres undefined),-0.4,-11,0,11,9,2.5,-3,6,-0.8,7
Cc1ccc(S(=O)(=O)N2CCCCC2)c(C)c1NS(C)(=O)=O,-4.3,-14,·,8,3,-9.0,0,-1,0.7,2
O=C(NCc1ccc(F)cc1)c1cccs1,-6.9,-12,·,5,8,2.2,0,20,0.1,-7
Cc1nc(CSc2nsc(C)c2C#N)cs1,0.6,-5,5,8,10,-2.2,1,0,-5.0,-3
O=C(NC(Cc1ccccc1)C(=O)O)C1CCN(S(=O)(=O)c2ccccc2C(F)(F)F)CC1 (centres undefined),4.6,1,8,1,11,1.0,·,-5,-0.4,-12
COc1ccc(C2=NOC(C(=O)NC3CCCCC3)C2)cc1OC (centres undefined),3.1,12,-2,·,·,·,-3,-3,-0.8,4
C=CCn1c(N)cc(=O)nc1SCC(=O)Nc1ccc(C(=O)OCC)cc1,-0.4,3,-6,-4,8,4.8,99*,3,-0.6,0
Cc1ccc(CN2CCN(/N=C\C(Br)=C\c3ccccc3)CC2)cc1,-5.4,-17,-6,·,·,·,-11,-1,-1.1,11
CCCn1c(C)c(C(=O)OCC)c(O)c(-c2ccccc2)c1=O,0.1,-14,-6,19,16,2.5,-3,-7,1.1,0
NS(=O)(=O)c1ccc(CNC(=S)NC(=O)c2ccco2)cc1,4.1,·,3,6,10,-0.4,·,-8,0.1,·
O=C(Nc1nc(-c2ccccc2)cs1)c1ccc(Br)o1,-5.9,-5,2,·,·,·,0,-7,-0.3,14
CC(=O)N1CN(C2CC(C)(C)NC(C)(C)C2)Cc2c1sc1c2CCCC1,-0.6,2,5,11,-3,-1.1,-12,-7,0.4,-16
CC(C)(C)NC(=O)C(c1ccccn1)N(C(=O)C1CSC(=O)C1)c1ccc(F)cc1 (centres undefined),1.3,35,-3,·,·,·,1,-7,-0.4,-8
Cc1ccc(N2CC(C(=O)NCc3n[nH]c(=O)c4ccccc34)CC2=O)cc1 (centres undefined),-1.6,·,-3,13,9,0.5,-16,-9,0.6,-16
Nn1c(Cc2ccccc2F)nnc1SCC(=O)Nc1cccc(S(=O)(=O)NC2=NCCCCC2)c1,-1.1,-2,2,-1,7,-1.6,·,-5,-0.1,-5
COC(=O)c1nc2ccccn2c1F,-3.6,14,-5,13,11,-0.1,-1,4,-0.9,-2
Cc1cc(-c2c(C)[nH]n(-c3ccccc3)c2=O)n[nH]1,3.6,-14,8,-24,-27,-10,81*,-6,-0.5,-3
CSc1ncc(C(=O)O)n1-c1ccc(F)cc1,-4.2,2,-6,·,·,·,-2,4,1.0,-14
Cc1cccc(N2C(=O)CC(N(O)c3ccccc3)C2=O)c1 (centres undefined),3.4,3,6,·,·,·,57,-1,-1.1,-4
CCOC(=O)C1CC=C(Cl)CC1C(=O)Nc1nccs1 (centres undefined),-0.3,-17,-4,·,·,·,-1,8,0.0,11

# Some entries already given with just Beta2AR agonist and Ecoli rRNA inh:
smiles	Beta2AR agonist	Ecoli rRNA inh
Cc1cc(-c2c(C)[nH]n(-c3ccccc3)c2=O)n[nH]1	-6	-24
CC(=O)N1CN(C2CC(C)(C)NC(C)(C)C2)Cc2c1sc1c2CCCC1	-7	11

# (more compounds)
SMILES,LANA-H2B inh,Calb FLC,Beta apoptosis,Ecoli rRNA inh,Ecoli rRNA inh OD600,Ecoli rRNA inh RFP,ALR inh,Beta2AR agonist,Bfl-1 A1 inh,T cruzi inh
Cc1ccc(Nc2ncnc(N)n2)cc1C,1.8,9,-2,4,2,-1.4,1,-10,-1.0,-2
CC1CCc2[nH]c3ccc(C(=O)N(C)CC(=O)Nc4ccccc4Br)cc3c2C1 (centres undefined),-0.2,10,4,-17,-42,-0.1,-10,9,-1.2,6
O=S1(=O)c2cccc3cccc(c23)N1Cc1ccc(-c2nnco2)cc1,7.2,40,5,·,·,·,-25,-3,0.1,7
COc1ccc(C(=O)NCc2ccccc2)cc1Br,4.1,-11,-8,·,·,·,2,-3,0.2,-12
C=CCN(C(=O)CCc1ccccc1OC)c1nc(-c2ccc(S(C)(=O)=O)cc2)cs1,-0.7,0,·,7,21,1.5,15,-13,0.7,66*
COc1ccc(CN(C)C(=O)c2cc(-c3ccccc3)nc3ccc(C)cc23)c(OC)c1OC,-6.8,-5,5,-5,-14,5.8,-22,7,0.0,25
Cc1cc(C)cc(C(=O)N2CCC3(CC2)NCCc2[nH]cnc23)c1,-2.4,-5,0,19,16,4.4,·,-4,0.0,2
CN1CCN(S(=O)(=O)c2cccc(C(=O)Nc3ccccc3N3CCOCC3)c2)CC1,2.9,-4,-5,15,11,3.9,-14,-23,0.3,11
C[N+]1(CCCCCCC(=O)/C=N/O)CCCCCC1,-8.4,-4,1,·,·,·,-1,3,1.3,3
O=C(CSc1nc(O)c(C2CCCCC2)c(=O)[nH]1)Nc1ccccc1Cl,2.0,4,1,-10,-11,-4.8,·,4,-1.0,-12
COC(=O)c1ccc(CNC(=O)C2CCC(=O)N(CCCc3ccccc3)C2)cc1 (centres undefined),-3.1,-3,·,11,10,4.1,-1,3,0.5,-7
O=C(COC(=O)Cc1ccccc1F)NCCc1ccccc1,-5.2,·,1,3,1,1.0,-1,-4,-0.1,·
CN(C)S(=O)(=O)c1ccc2c(c1)nc(CCC(=O)NCC1CCCCC1)n2C,-2.4,-12,-4,·,·,·,-17,1,0.6,2
COC(=O)c1ccc(CSc2ncnc3sc(C)c(C)c23)o1,-0.5,-4,-4,·,·,·,4,-3,-0.3,-5
COc1ccc(C(=O)Nc2ccccc2C(=O)O)cc1Cl,3.0,-3,2,-37,-38,-9.3,52,8,-7.6,2
CC1CC(=O)N(c2ccc(N(C)Cc3ccccc3)c([N+](=O)[O-])c2)C1=O (centres undefined),-1.3,-4,2,1,-1,-1.4,-6,-2,-0.2,7
COc1ccc(C(NC(=O)CC(C)C)c2c(O)ccc3ccccc23)cc1 (centres undefined),-4.3,-59,-6,-13,-21,-1.0,-37,15,-0.5,13
COc1ccc2[nH]c(=O)c(CN(Cc3ccco3)Cc3nnnn3Cc3ccccc3)cc2c1,6.0,-10,-10,·,·,·,6,8,0.7,-10
Cc1ccc(-n2cc(CN3CCNC(=O)CC3)c(-c3cccc(C)c3)n2)cc1,-7.5,7,-8,-57,-77,-17,0,-1,0.1,25
Cc1cccc(N2CCN(C(=O)C3CCCN(S(=O)(=O)c4cnc[nH]4)C3)CC2C)c1 (centres undefined),-2.0,0,-2,·,·,·,99*,33,-0.1,-5
N#Cc1ccsc1NC(=O)CN1CCN(c2ccc(O)cc2)CC1,0.2,-30,·,·,·,·,99*,-6,1.2,-5
O=S(=O)(Nc1cccc(-c2ccc3nncn3n2)c1)c1ccccc1F,-3.1,12,·,-14,-15,0.0,37,6,1.9,-9
CCOc1ccc(NC(=S)Nc2cccc3ccccc23)cc1,4.8,0,8,-13,-6,-0.4,-21,0,-1.3,0
Cc1ccc(-c2nnc(NCc3nc4ccccc4[nH]3)c3ccccc23)cc1S(=O)(=O)N1CCCCC1,·,9,7,·,·,·,·,6,0.7,30
COc1ccc2oc(C(=O)OCC(=O)N(C)c3ccccc3)c(C)c2c1,-1.0,-7,-4,2,8,0.8,·,7,0.2,-3
O=C(Nc1cc(C(F)(F)F)ccc1Cl)C(=O)N1CCCCC1,-0.6,-2,-3,1,8,-1.6,1,-5,2.4,-19
Brc1ccc(-c2nc3ccccc3s2)s1,0.4,-6,3,·,·,·,3,3,-0.1,-13
CC(C)(C)c1ccc(S(=O)(=O)CC(O)CSc2nc3c(cc2C#N)CCCC3)cc1 (centres undefined),0.4,2,·,·,·,·,-6,-4,2.0,12
CC(C)(C)C(=O)NC(=S)N1CCOCC1,-0.5,17,1,8,11,8.0,2,-4,1.0,-10
Cn1nccc1C(=O)N1CCCC(C(=O)c2ccc(Oc3ccccc3)cc2)C1 (centres undefined),-4.9,8,-1,0,-36,-1.2,-37,-17,0.0,15
COC(=O)Cn1nc(-c2ccc(C)cc2)c2ccccc2c1=O,-9.9,5,0,19,6,3.1,2,19,-0.6,-12
CC1(C)CCC[C@]2(C)[C@H]3Cc4cc(O)ccc4O[C@]3(C)CC[C@@H]12,-5.0,·,10,10,8,0.1,46,2,-0.6,·
Cc1nc2cc3c(cc2c(C)c1C(=O)OC(C)C)OCO3,-0.5,2,-7,·,·,·,·,7,-0.6,-7
C=CCNc1nc(-c2ccccc2)c(C(=O)OCC)cc1C#N,-1.6,-7,1,·,·,·,·,-7,-0.6,-10
Clc1ccc(-c2nc3cnccn3c2Nc2ccc3c(c2)OCO3)cc1,-0.2,-2,-4,-39,-76,-21,98*,18,-1.1,15
CC(Sc1n[nH]c(-c2ccccc2)n1)C(=O)c1c(N)n(C)c(=O)n(C)c1=O (centres undefined),-3.7,2,2,-1,1,-0.1,-3,-5,-0.3,-9
CC1CCc2c(sc3ncnc(SCC(=O)c4ccccc4)c23)C1 (centres undefined),-2.1,-12,-12,·,·,·,·,1,-0.5,30
CCCN(CCC)S(=O)(=O)c1ccc(C(=O)Nc2c(C)n(C)n(-c3ccccc3)c2=O)cc1,-1.0,34,-2,-5,8,-1.8,-14,2,-0.2,-1
CC(=O)NC1C(Oc2ccccc2C)OC(CO)C(O)C1O (centres undefined),1.6,-3,-3,8,-1,3.5,·,2,0.9,-8
C[C@H](CO)N1C[C@H](C)[C@@H](CN(C)S(C)(=O)=O)Oc2ccc(NC(=O)C3CC3)cc2C1=O,3.8,·,3,5&11,3&6,0.1&-0.7,-3,8,0.7,·
O=S1(=O)CC(NCc2ccccc2)C(Nc2ccccc2)C1 (centres undefined),3.0,34,-7,12,-3,1.4,35,-8,-1.1,-5
O=C(NCCN1CCCCC1)Nc1cccc(C(F)(F)F)c1,-5.6,-3,-5,2,5,1.8,39,1,-0.4,6
Fc1ccc(COc2ccc(Br)cc2CNCC2CCCO2)cc1 (centres undefined),3.3,-12,8,-10,-8,1.6,-3,-6,1.2,19
O=C(NNC(=O)c1cc2ccccc2cc1O)NC1CCCCC1,4.2,?,-2,7,-11,3.0,-14,3,-0.4,6
CCN1C(=O)CSC1=NC1C2CC3CC(C2)CC1C3 (centres undefined),-2.8,4,-1,·,·,·,0,-10,-1.1,2
CC(C)CCN1CCN(Cc2cccn2-c2ccccn2)CC1CCO (centres undefined),-4.7,0,-2,8,12,2.7,-11,3,-0.1,2
COc1cc(NC(=O)COc2cccc(C)c2C)ccc1NC(=O)c1ccco1,-0.8,1,-2,10,15,4.8,-3,-19,1.0,-3
C=CCN1C(=O)/C(=C\C(C)=C\c2ccccc2)SC1=S,3.9,-5,-4,3,2,-1.7,·,-2,0.1,6
